Compound activity deposited in PubChem by National Center for Advancing Translational Sciences (NCATS).
FLuc counter = inhibits or activates purified firefly luciferase, miR-21 counter-screen; P08659; purified FLuc, Km substrates, luminescence inhibition; Potency, µM (doses to about 57.5 µM), for inactives: top-dose activity change, negative = inhibition, most hits filed as inhibitors; 360,000 tested, 6.9% active;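 also: potency is read from the fitted curve at half-maximal effect; plate controls were vehicle for no effect and reference inhibitor for full effect; nearly all actives have a fitted effect of over 55% in size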
Target sequence (P08659 whole entry, looked up): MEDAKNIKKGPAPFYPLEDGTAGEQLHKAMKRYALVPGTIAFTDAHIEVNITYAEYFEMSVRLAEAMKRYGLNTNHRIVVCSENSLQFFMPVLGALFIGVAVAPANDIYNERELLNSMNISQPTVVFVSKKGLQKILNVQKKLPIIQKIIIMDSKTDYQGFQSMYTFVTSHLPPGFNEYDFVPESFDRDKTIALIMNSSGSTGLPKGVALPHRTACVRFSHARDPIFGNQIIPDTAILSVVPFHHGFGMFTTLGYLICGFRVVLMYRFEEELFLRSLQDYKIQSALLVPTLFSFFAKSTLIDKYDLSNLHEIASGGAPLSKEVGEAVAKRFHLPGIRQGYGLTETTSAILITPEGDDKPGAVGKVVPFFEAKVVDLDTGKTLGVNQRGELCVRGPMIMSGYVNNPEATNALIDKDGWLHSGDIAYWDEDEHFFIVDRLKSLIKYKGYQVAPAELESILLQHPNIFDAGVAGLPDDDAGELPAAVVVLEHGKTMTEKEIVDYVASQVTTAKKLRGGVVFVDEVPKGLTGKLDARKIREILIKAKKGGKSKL
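Purified P. pyralis luciferase (10nM final) with 10uM D-luciferin and 10uM ATP (Km levels) in 50mM Tris acetate pH 7.5, 10mM Mg acetate, 0.01% Tween-20, 0.05% BSA; qHTS 6-point titration, ~60 µM downward; luminescence read.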
Rab9 prom act = activates the Rab9 promoter; Huh7 Rab9 promoter-luciferase reporter, luminescence, 24 h; Potency, µM (titrated, usually from 9.22 µM), without a hit: at the top dose activation, negative = inhibition, hits mostly activators; 320,000 tested, 2.8% active; also: potency is read from the fitted curve at half-maximal effect; % of control where 0% means no effect; nearly all actives have a fitted effect of over 60% in size
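Rab9 promoter-driven luciferase in stably transfected Huh7 cells; 1500 cells/well rested 2 h, exposed to compound in DMSO for 24 h at 37 °C, 5% CO2. Luminescence read 10 min after adding luciferase reagent at ambient temperature.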
MBNL1 CUG block = MBNL1-poly(CUG) RNA binding inhibition; Potency, µM (doses to about 57.5 µM), without a hit: at the highest dose activity change, negative = inhibition, most hits filed as inhibitors; AID 2675; 280,000 tested, 0.036% active; TR-FRET MBNL1-His/biotin-(CUG)12 binding, 665/545 ratio; Q9NR56; active = well fitted inhibition curve with a large enough effect in the signal ratio, with a control signal flat, not every such curve was filed as active; inconclusive = small, poorly fitted or top-dose-only effect, or effect the other way, or a change in a side signal; inactive = no such curve, though single readings can be large or run the other way; the % refers to the signal ratio; also: potency is read from the fitted curve at half-maximal effect; % is scaled to controls: 0 for no effect and ±100 for the full control effect
Target sequence (Q9NR56 whole entry, looked up): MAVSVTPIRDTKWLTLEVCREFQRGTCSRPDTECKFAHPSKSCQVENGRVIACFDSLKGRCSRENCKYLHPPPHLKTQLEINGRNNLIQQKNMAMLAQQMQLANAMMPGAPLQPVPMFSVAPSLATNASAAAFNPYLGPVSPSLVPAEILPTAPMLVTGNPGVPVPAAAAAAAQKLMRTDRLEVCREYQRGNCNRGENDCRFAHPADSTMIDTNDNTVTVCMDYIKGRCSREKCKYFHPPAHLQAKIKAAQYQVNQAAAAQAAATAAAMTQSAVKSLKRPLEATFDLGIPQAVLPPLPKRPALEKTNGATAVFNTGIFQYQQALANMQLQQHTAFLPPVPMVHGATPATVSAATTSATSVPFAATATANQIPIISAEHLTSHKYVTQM
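Compounds (final 92 nM to 58 uM) are added to His-tagged MBNL1 and biotin-(CUG)12, then terbium anti-His antibody and streptavidin-XL665 (5 nM final). After 60 min at room temperature, the 665/545 nm ratio is read.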
KCNH2 3.1 inh = blocks the human KCNH2 3.1 channel isoform. U2OS KCNH2 3.1, thallium flux FluxOr; active compounds read low. activity change, % (tested at about 1.8 µM). 340,000 tested, 0.95% active;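 active = maximum activity change below -70%; inconclusive = maximum activity change from -70% to -50%; inactive = maximum activity change above -50%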;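 also: thallium influx rate constant from kinetic fluorescence after stimulation buffer; % is scaled to controls: 0 for no effect and ±100 for the full control effect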
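Normalized rate constant (relative to positive and negative DMSO controls) derived from a 2 min kinetic fluorescence read after stimulation; U2OS cells expressing the 3.1 isoform via virus at 1.77 x 10^8 /mL.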
NPC1 promoter act = activates the NPC1 promoter; Huh7 NPC1 promoter luciferase reporter, 24 h; Potency, µM (doses to about 9.22 µM), for the others: at the highest dose activation, hits mostly activators; 320,000 tested, 2.4% active; AID 485313;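 also: potency is read from the fitted curve at half-maximal effect; % of control where 0% means no effect; nearly all actives have a fitted effect of over 60% in size; reporter is driven by a mutant NPC1 promoter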
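Stable NPC1-promoter luciferase Huh7 line; cpd (DMSO) 24 h, 37 °C, 5% CO2; Amplite luciferase reagent 10 min RT; luminescence readout. qHTS format.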
ELG1 repair inh = ELG1-dependent DNA repair inhibition. 330,000 tested, 2.3% active. Potency, µM (highest dose often 46.1 µM), for inactives: top-dose activity change, negative = inhibition, usual class: inhibitors. HEK293T ELG1-luciferase reporter, luminescence, 16 h; DNA damage induced by 5-fluorouridine; also: potency is read from the fitted curve at half-maximal effect; % is scaled to controls: 0 for no effect and ±100 for the full control effect; nearly all actives have a fitted effect of over 55% in size
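DMSO vehicle served as the neutral condition. Each well held 2,000 cells given 5-fluorouridine plus compound; after 16 hr at 37 °C/5% CO2, ONE-Glo was added and luciferase measured 30 min later.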
Mito fusion act = blocks mitochondrial division or promotes mitochondrial fusion; S. cerevisiae fusion-defective mutant growth rescue, CellTiterGlo 48 h; Potency, µM (doses to about 46.1 µM), for the others: top-dose growth rescue (activation), most hits filed as activators; 320,000 tested, 0.23% active; AID 485298;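 also: potency is read from the fitted curve at half-maximal effect; % of control where 0% means no effect; nearly all actives have a fitted effect of over 45% in size; temperature-sensitive fusion mutants such as fzo1-1 at 37 °C on non-fermentable ethanol glycerol medium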
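Read-out: ATP-based luminescence (CellTiterGlo, 10 min ambient) reporting growth of fusion-defective ts yeast after 48 hours at 37C on glycerol/ethanol YPEG medium in the presence of compound.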
PKM2 act = increases activity of human pyruvate kinase M2; 260,000 tested, 0.34% active; Potency, µM (top dose mostly 57.5 µM), without a hit: top-dose activation, hits mostly activators; P14618; AID 1631; purified PKM2, Kinase-Glo ATP luminescence, activation; response scale: 0% is enzyme alone, no compound; also: potency is read from the fitted curve at half-maximal effect; % is scaled to controls: 0 for no effect and ±100 for the full control effect; nearly all actives have a fitted effect of over 55% in size
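Kinase-Glo luminescence reports ATP generated from ADP (0.1 mM) and PEP (0.5 mM) by purified hPK-M2 after 1 h at room temperature, pH 7.2 imidazole buffer; intermediate enzyme activity allows detecting inhibitors and activators.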
RORg inh = ROR gamma (mouse) transcription inhibition; P51450; 310,000 tested, 5.4% active; Drosophila S2 Gal4-RORgamma UAS-luciferase reporter, 20 h; Potency, µM (titrated, usually from 53.6 µM), inactives show at the top dose activity change, negative = inhibition, usual class: inhibitors; also: potency is read from the fitted curve at half-maximal effect; % is scaled to controls: 0 for no effect and ±100 for the full control effect; nearly all actives have a fitted effect of over 60% in size
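In this cell-based reporter format, copper sulfate (700 uM final) drives Gal4–ROR gamma fusion expression from a metallothionein promoter in Drosophila Schneider cells; compounds preincubated 1 hr, reporter read after 20 hr at ambient temperature.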
Gal4-VP16 FLuc = counter-screen for ROR gamma inhibitors: Gal4-VP16 reporter; Drosophila S2 Gal4-VP16 UAS-luciferase, luminescence, 20 h; AID 2546; Potency, µM (top dose mostly 53.6 µM), for inactives: at the top dose activity, negative = inhibition, hits mostly inhibitors; 310,000 tested, 3.5% active;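 also: Gal4-VP16 expression switched on by copper sulfate through the metallothionein promoter; potency is read from the fitted curve at half-maximal effect; % is scaled to controls: 0 for no effect and ±100 for the full control effect; nearly all actives have a fitted effect of over 50% in size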
Starred values were filed as active, the others as inactive; ? = inconclusive; · = no result given; & = joins results of further samples; [ ] = dose if it differs, or a comment. Unless noted, calls follow the shape of the dose curve; as a rule, active = well fitted curve in the direction sought with a large enough effect; inconclusive = small, poorly fitted or top-dose-only effect, or another doubt; inactive = no such curve, though single readings can be large; an effect the other way counts as inactive or inconclusive. An excerpt; the hit share may differ from the screen's.

entry	Compound	FLuc counter	Rab9 prom act	MBNL1 CUG block	KCNH2 3.1 inh	NPC1 promoter act
1	Cc1ccc(NC(=O)N/C=C/c2ccc(Cl)cc2)cc1	-6.8%	·	2.7%	-1.0	?
2	CC(C)OCCCNC(=O)COCC(=O)Nc1ccc(OCCc2ccccc2)cc1	2.8%	-0.3%	-6.0%	8.5	0.3%
3	CC(Cc1ccccc1)C(=O)N1CCN(C)CC1 (stereo unspecified)	2.7%	-3.6%	0.4%	-2.1	0.6%
4	COc1ccc(OC)c(C(O)c2nc3ccccc3n2C(C)C)c1 (stereo unspecified)	-0.6%	-5.6%	12.1%	7.3	-5.1%
5	c1ccc(OCc2nnc3sc(-c4cccs4)nn23)cc1	-2.4%[2.3 µM]	1.7%	15.6%	-6.4	-0.8%
6	Cc1c(C)n(CCc2ccccc2)c2ncnc(NN)c12	-14.8%	-14.5%	9.1%	-5.9	-26.2%
7	COc1ccc(C(=O)Nn2c(C)nc3ccccc3c2=O)cc1OC	0.5%	-3.1%	-9.9%	7.4	-0.5%
8	CC(C)Cn1c2ccccc2c2cc(C(=O)O)ccc21	3.9%	-1.2%	-4.0%	2.6	-6.7%

entry	ELG1 repair inh	Mito fusion act	PKM2 act	RORg inh	Gal4-VP16 FLuc
1	27.1%	0.9%	3.2%	18.9%	?
2	-17.8%	-0.5%	0.0%	?	6.6%
3	14.8%	-2.4%	-1.0%&-0.1%	-30.4%&-0.8%	-8.5%&8.0%
4	-13.1%	2.8%	5.9%	-17.0%	7.4%
5	1.5%	16.7%	-1.7%	12.6%	13.3%
6	?	-2.5%	·	-16.7%	?
7	?	-7.5%	·	-10.8%	0.4%
8	14.1%	5.9%	-4.3%	18.4%	-10.8%

More compounds follow.
entry	Compound	FLuc counter	Rab9 prom act	MBNL1 CUG block	KCNH2 3.1 inh	NPC1 promoter act
9	O=C(/C=C/c1ccccc1)NC(NC(=S)Nc1ccc(C(=O)O)cc1)C(Cl)(Cl)Cl (stereo unspecified)	?	-4.3%	·	7.0	-0.6%
10	O=C(CCCn1c(=S)[nH]c2ccccc2c1=O)N1CCCCC1	-3.3%	-2.8%	2.5%	-2.0	-5.6%
11	CCOC(=O)N1CCN(C(=O)CCn2c(=S)[nH]c3ccccc3c2=O)CC1	1.7%	3.3%	-2.3%	-0.8	0.8%
12	N#CCCSc1ccccc1NC(=O)c1cc(=O)c2ccccc2o1	-7.5%	13.5%	?	-0.5	3.2%
13	COc1ccc(NC(=O)CS(=O)CC(=O)Nc2cccnc2)cc1 (stereo unspecified)	-2.4%	2.2%	2.2%	15.4	1.1%
14	CC(c1ccccc1)C1CC(=O)N(CC(=O)O)C1=O (stereo unspecified)	0.0%	1.5%	2.4%	-0.6	-1.0%
15	CC(=O)/C(=N/Nc1ccc(Br)cc1)Sc1cccc2cccnc12	-4.3%	-6.9%	-4.7%	16.7	-0.8%
16	Cc1ccc(N(CC(=O)N/N=C/c2ccco2)S(=O)(=O)c2ccccc2)cc1	-8.2%	6.6%	-1.3%	5.8	1.3%

entry	ELG1 repair inh	Mito fusion act	PKM2 act	RORg inh	Gal4-VP16 FLuc
9	18.0%	0.1%	-5.7%	-1.0%[10 µM]	3.2%
10	-2.1%	7.2%	-1.0%	?	?
11	1.2%	-12.2%	·	-21.2%	-2.8%
12	-14.0%	6.7%	·	11.2%	7.3%
13	1.8%	-5.4%	3.1%	-19.7%	-1.2%
14	3.0%	-1.4%	-1.9%	1.9%	21.2%
15	?	9.4%	-25.1%	?	?
16	0.9%	-3.6%	?	16.0%	?

Nos. 10–12, reprinted for reference:
entry	Compound	FLuc counter	Rab9 prom act	MBNL1 CUG block	KCNH2 3.1 inh	NPC1 promoter act
10	O=C(CCCn1c(=S)[nH]c2ccccc2c1=O)N1CCCCC1	-3.3%	-2.8%	2.5%	-2.0	-5.6%
11	CCOC(=O)N1CCN(C(=O)CCn2c(=S)[nH]c3ccccc3c2=O)CC1	1.7%	3.3%	-2.3%	-0.8	0.8%
12	N#CCCSc1ccccc1NC(=O)c1cc(=O)c2ccccc2o1	-7.5%	13.5%	?	-0.5	3.2%

entry	ELG1 repair inh	Mito fusion act	PKM2 act	RORg inh	Gal4-VP16 FLuc
10	-2.1%	7.2%	-1.0%	?	?
11	1.2%	-12.2%	·	-21.2%	-2.8%
12	-14.0%	6.7%	·	11.2%	7.3%

One compound at a time, as listed above. Order of values: FLuc counter | Rab9 prom act | MBNL1 CUG block | KCNH2 3.1 inh | NPC1 promoter act | ELG1 repair inh | Mito fusion act | PKM2 act | RORg inh | Gal4-VP16 FLuc
O=C(/C=C/c1ccccc1)NC(NC(=S)Nc1ccc(C(=O)O)cc1)C(Cl)(Cl)Cl (stereo unspecified) is listed with ? | -4.3% | · | 7.0 | -0.6% | 18.0% | 0.1% | -5.7% | -1.0%[10 µM] | 3.2%
Cc1ccc(N(CC(=O)N/N=C/c2ccco2)S(=O)(=O)c2ccccc2)cc1 is listed with -8.2% | 6.6% | -1.3% | 5.8 | 1.3% | 0.9% | -3.6% | ? | 16.0% | ?
CC(c1ccccc1)C1CC(=O)N(CC(=O)O)C1=O (stereo unspecified) is listed with 0.0% | 1.5% | 2.4% | -0.6 | -1.0% | 3.0% | -1.4% | -1.9% | 1.9% | 21.2%
O=C(CCCn1c(=S)[nH]c2ccccc2c1=O)N1CCCCC1 is listed with -3.3% | -2.8% | 2.5% | -2.0 | -5.6% | -2.1% | 7.2% | -1.0% | ? | ?

Additional entries.
entry	Compound	FLuc counter	Rab9 prom act	MBNL1 CUG block	KCNH2 3.1 inh	NPC1 promoter act
17	CCC(C)Nc1nc(N)c([N+](=O)[O-])c(NC2CCCCC2)n1 (stereo unspecified)	3.0%	1.1%[1.84 µM]	-12.5%	-4.5	-7.0%
18	O=C(NC(Nc1cc(C(F)(F)F)ccc1Cl)C(=O)c1ccccc1)c1ccccc1 (stereo unspecified)	1.8%	-0.1%	-6.2%	-7.8	4.9%
19	COc1cccc(NCc2cc(=O)oc3cc(C)c(C(C)C)cc23)c1	0.5%	-8.0%[1.84 µM]	-5.6%	4.7	-0.1%
20	O=c1c2cccnc2[nH]c(=S)n1CCCN1CCN(c2ccc(F)cc2)CC1	-1.3%	0.0%	-10.3%	-6.1	1.5%
21	CCN(CCCn1c(=S)[nH]c2ncccc2c1=O)c1ccccc1	1.5%	3.4%	7.5%	18.1	0.2%
22	Cn1c(-c2ccc(Cl)cc2)ccc(C#N)c1=O	-2.2%	-4.2%	-6.6%	-5.5	1.9%
23	CCOC(=O)c1cc(C#N)c(Oc2ccccc2OC)nc1-c1ccccc1	0.0%	-0.7%	-4.7%	-24.9	2.9%
24	CN(C)S(=O)(=O)c1ccc(C(=O)NCCSc2ccc(Br)cc2)cc1	-0.3%	-8.9%	-14.9%	10.6	1.8%

entry	ELG1 repair inh	Mito fusion act	PKM2 act	RORg inh	Gal4-VP16 FLuc
17	18.4%	28.0%	·	16.8%	5.5%
18	12.3%	5.7%	0.0%	-27.2%	-6.6%
19	-5.7%	10.5%	·	17.1%	-0.8%
20	19.3%	-2.7%	-0.3%	?	-6.6%[0.365 µM]
21	?	-3.5%	-10.3%	1.41µM*	3.98µM*
22	21.0%	-10.6%	0.6%	-37.8%	-2.3%
23	?	7.0%	1.2%	29.3%	-4.5%
24	-16.7%	-0.1%	1.9%	?	-9.0%
